Anthrax LT inh: blocks cellular internalization of anthrax lethal toxin; AID 912; Cells, anthrax lethal toxin internalization, FRET ratio (460/530); hit rate 0.67% among 70,000; Potency, µM (doses to about 40 µM), inactives show at the highest dose activity change, negative = inhibition, hits mostly inhibitors; active = well fitted falling ratio curve with the 530 nm signal flat; inconclusive = other ratio curves, or a change in one channel alone; inactive = flat curves in the ratio and both channels; the % refers to the ratio; note: % is set by controls: 0 for no effect and ±100 for the full control effect; nearly all actives have a fitted effect of over 50% in size; tested in ME-180 cells; beta-lactamase reporter
Prx2 Sm inh: Schistosoma mansoni Prx2 inhibition | S. mansoni Prx2 activity coupled to TGR/GSH (TGR is thioredoxin glutathione reductase), NADPH fluorescence loss, qHTS; some inactives read as strong as hits | Potency, µM | hit rate 0.07% among 65,000 | AID 448; active means full or partial inhibition curve with a strong effect at the top dose; inconclusive means weaker partial or single-point curve; inactive means no accepted curve; note: series up to 57 µM; many of its hits are not listed in these tables
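Activity is read as the drop in NADPH fluorescence (365/450 nm), recorded every 30 sec for 8 min after H2O2 addition. Prx2 is coupled to TGR-driven NADPH oxidation through glutathione, in phosphate buffer pH 7.4.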
* hit, by the source's call; ? = inconclusive; · = no result given; & = joins results of further samples; [ ] = another dose, or the depositor's remark. Potency is the fitted concentration of half-maximal effect.

SMILES	Anthrax LT inh	Prx2 Sm inh
CSc1ccc(C2Nc3ccccc3-c3cc(C)nn32)cc1 (centres undefined)	13µM*	>57
Cc1nc2ncnn2c(C)c1CCC(=O)Oc1ccccc1	-26%	>57
CCC(C)NC(=O)C1c2ccccc2C(=O)N1Cc1cc(OC)ccc1OC (centres undefined)	-10%	>57
CCC(C)(C)N=C(NC#N)Nc1cccnc1	?	>57
O=C(NCCc1ccccc1)C1CCN(S(=O)(=O)c2cccc3nsnc23)CC1	-2%	>57
Cc1ccccc1OCC(O)Cn1c(NCCN(C)C)nc2c1c(=O)n(C)c(=O)n2C (centres undefined)	-17%	>57
COc1ccc2oc(=O)c(C(=O)N3CCc4ccccc43)cc2c1	-4%	>57
O=C(c1ccc(-c2ccccc2)cc1)N1CCN(Cc2ccccn2)CC1	4%	·
CCOC(=O)Cc1c(C)nc2cc(-c3ccc(Cl)cc3)[nH]n2c1=O	-6%	>57
CC1CCCCN1C(=O)Cn1cc(C(=O)c2ccco2)c2ccccc21 (centres undefined)	11%	>57
CC(C)c1cccc(C(C)C)c1OCCn1ccnc1	-9%	>57
O=C(CN1C(=O)C2C3C=CC(C3)C2C1=O)NCC1COc2ccccc2O1 (centres undefined)	6%	>57
CCOC(=O)c1cc2n(c1N)-c1ccccc1C2=O	-6%	>57
CCOC(=O)c1c(-c2ccc(C)o2)csc1NC(=O)CN1CCN(CC)CC1	·	>57
COc1ccccc1C(=O)N1CCN=C1SC	?	>57
CC1Cn2c(nnc2-c2cccc(Cl)c2)S1 (centres undefined)	3%	>57
CSc1nsc(SCC(=O)N2CCCc3ccccc32)n1	?	>57
CCCCCCC1CC(CSc2ncn[nH]2)OC1=O (centres undefined)	-5%	>57
CCOc1ccc(CN2C(=O)CCC2(C)C(=O)NCc2cccnc2)cc1 (centres undefined)	-10%	>57
COc1ccc(NS(=O)(=O)c2ccc3c(c2)CCC(=O)N3)c(OC)c1	9%	>57
COc1cc(-c2nc(S(=O)(=O)c3ccc(C)cc3)c(N(C)C)o2)cc(OC)c1OC	?	>57
COc1ccc(S(=O)(=O)N(C)c2ccc(C(=O)N3CCOCC3)cc2)cc1OC	6%	>57
c1n[nH]c(NCc2ccc3c(c2)OCO3)n1	-18%	>57
C=CCNc1nc(N2CCCC2)nc2ccccc12	?	>57
Cc1nc2nc(Cc3ccccc3)[nH]n2c(=O)c1Cc1ccccc1	5%	?

Brought forward from above: 6 compounds; new compounds follow.
SMILES	Anthrax LT inh	Prx2 Sm inh
COc1ccc(NS(=O)(=O)c2ccc3c(c2)CCC(=O)N3)c(OC)c1	9%	>57
COc1cc(-c2nc(S(=O)(=O)c3ccc(C)cc3)c(N(C)C)o2)cc(OC)c1OC	?	>57
COc1ccc(S(=O)(=O)N(C)c2ccc(C(=O)N3CCOCC3)cc2)cc1OC	6%	>57
c1n[nH]c(NCc2ccc3c(c2)OCO3)n1	-18%	>57
C=CCNc1nc(N2CCCC2)nc2ccccc12	?	>57
Cc1nc2nc(Cc3ccccc3)[nH]n2c(=O)c1Cc1ccccc1	5%	?
CN(C)S(=O)(=O)c1ccc(S(=O)(=O)N(CC(=O)Nc2ccccc2)Cc2ccco2)cc1	11%	>57
Cc1ccnc(SCCn2c(N3CCOCC3)nc3c2c(=O)n(C)c(=O)n3C)n1	7%	>57
COc1ccc(N(CC(=O)O)S(=O)(=O)c2cccnc2)cc1	-5%	>57
COc1ccc(-c2noc(C3CCCN(C(=O)CCc4ccccc4)C3)n2)cc1 (centres undefined)	0%	>57
COc1ccccc1N1CCN(C(c2cccs2)C(C)NS(=O)(=O)c2ccccc2)CC1 (centres undefined)	?	>57
COCCC(=O)NC12CC3CC(CC(C3)C1)C2	2%	>57
Cn1c(=O)c2c(nc(SCC(=O)c3cccs3)n2Cc2ccc(F)cc2)n(C)c1=O	-2%	>57
N#CCCn1c(=O)c(CCc2ccccc2)nc2cnc(OCc3ccccc3)nc21	?	>57
COc1cc(C(=O)NCCC(=O)NCc2ccc3c(c2)OCO3)cc(OC)c1OC	-28%	>57
Cc1nc(N=Nc2cc(S(=O)(=O)O)ccc2S(=O)(=O)O)c(COP(=O)(O)O)c(C=O)c1O	-15%	>57
O=C(NCc1ccco1)c1cc2n(n1)C(C(F)(F)F)CC(c1ccc(Br)cc1)N2 (centres undefined)	?	>57
Cn1c(SCc2ccc(F)cc2)nnc1-c1ccccn1	-6%	>57
Clc1cccc(-c2cc3nc4c(c(N5CCOCC5)n3n2)CCCC4)c1	?	>57
COc1cc(OC)cc(C(=O)Nc2cccc(N3CCCC3)c2)c1	28%	>57
O=C1CCSc2cccc3cccc(c23)N1	-8%	·
Cc1oc2nc(SCC(=O)NC3CCCCC3)nc(N)c2c1C	18%	>57
O=C(O)CN1C(=O)CCS(=O)c2ccccc21 (centres undefined)	0%	>57
O=C(Nc1cccc(F)c1)N1CCCC2(CCNCC2)C1	?	>57
Cc1ccc(-c2nc(N)n(C(=O)Cc3ccccc3)n2)cc1	-12%	>57
CN(CCc1ccccn1)c1ncnc2[nH]ncc12	3%	>57
Fc1cccc(CSc2ncnc3c2ncn3[C@H]2CCCS2)c1	-10%[8 µM]	>57
CC(C)(C)OC(=O)NCC(=O)NCC(=O)OCc1ccccc1	-13%	>57
CCOC(=O)C1=C(NC#N)OC(C)=C(C)C1c1ccc(O)cc1 (centres undefined)	-10%	>57
COC(=O)c1c(N)sc(C(=O)N2CCOCC2)c1C	12%	>57
Cc1ccc(-c2nc(C)sc2CC(=O)NCc2ccco2)cc1	-2%	>57

Following part
SMILES	Anthrax LT inh	Prx2 Sm inh
CN(C)[C@@H]1C(=O)C(C(N)=O)=C(O)[C@@]2(O)C(=O)C3=C(O)c4c(O)cccc4[C@@](C)(O)[C@H]3[C@H](O)[C@@H]12	-18%	·
CCC(C)NC(=O)c1cc(CC(C)C)on1 (centres undefined)	-5%	>57
COc1ccc(NC(=O)N2CC[C@@]3(CCCN(C(=O)c4ccco4)C3)C2)cc1	?	>57
CCOC(=O)N1CCC2(CC1)C(C#N)=C(N)Oc1c2sc2nc(C)cc(C)c12	6%	>57
COc1ccc2[nH]c(I)c(CCNC(C)=O)c2c1	-5%&4%	>26&>57
Cc1nc(NC(=O)c2ccc(Br)s2)sc1C(=O)N(C)C	2%	·
O=C(NC(Cc1ccccc1)C(=O)O)c1ccc(S(=O)(=O)N2CCOCC2)cc1 (centres undefined)	-5%	>57
O=C(NCc1cccnc1)c1noc2c1CCCC2	7%	>57
COCCCNC(=O)Cn1nnc(-c2ccc(NC(=O)c3ccc(F)cc3)cc2)n1	-10%	>57
Cc1nc2cc(S(=O)(=O)C(F)(F)F)ccc2s1	2%	>57
CCCc1nc(SCC(N)=O)[nH]c(=O)c1CC	3%	>57
COc1ccc(-c2coc3cc(O[C@@H]4O[C@@H](CO)[C@@H](O)[C@@H](O)[C@H]4O)cc(O)c3c2=O)cc1	?	>57
COc1ccc(OC)c(NC(=O)CSc2nnc(N)s2)c1	-9%	>57
CN(C1=NC(=O)C(CC(=O)Nc2ccc(Br)cc2)S1)c1ccc(O)cc1 (centres undefined)	3%	>57
COc1ccc(OC)c(C(=O)c2ccc(C(=O)N3CCCCC3)cc2)c1	-23%	·
CCCC[C@@H]1C[C@H]1C(NC(=O)c1ccccc1)c1ccc(-c2ccccc2)cc1 (some centres undefined)	-5%	>57
CCC(C)(C)NC(=O)CN(C(=O)CNS(=O)(=O)c1ccccc1)c1ccccc1	?	>57
O=C(NC1CCCCCCC1)c1cnccn1	8%	>57
O=c1[nH]c(=O)n(C2CCCCC2)c(O)c1C1NCCc2ccccc21 (centres undefined)	-13%	>57
Cc1oc(-c2ccc(Cl)cc2)nc1CS(=O)CC(=O)NCCCN(C)C1CCCCC1 (centres undefined)	-8%	>57
Cc1nn(C)cc1CNC(=O)c1cc2n(n1)C(C(F)(F)F)CC(c1cccs1)N2 (centres undefined)	-2%	>57
O=c1c(-c2ccc(F)cc2)nc2cnc(Oc3cccc(Cl)c3)nc2n1C[C@H]1CCCO1	?	>11
Cc1cnc(NC(=O)CN2C(=O)C3CC=CCC3C2=O)s1 (centres undefined)	?	>57
COC(=O)CNc1nc(OC)nc(N(C)C)n1	8%	>57
COc1ccc2c(c1)c(CCN1C(=O)c3ccccc3C1=O)cn2C(=O)c1ccco1	2%	·

Part of the list above, in CSV form.
smiles,Anthrax LT inh,Prx2 Sm inh
O=C(NCc1cccnc1)c1noc2c1CCCC2,7%,>57
COCCCNC(=O)Cn1nnc(-c2ccc(NC(=O)c3ccc(F)cc3)cc2)n1,-10%,>57
Cc1nc2cc(S(=O)(=O)C(F)(F)F)ccc2s1,2%,>57

Next records.
SMILES	Anthrax LT inh	Prx2 Sm inh
CC1=C(C(=O)Nc2ccccc2)C(c2ccc(C)o2)N2C(=O)CSC2=N1 (centres undefined)	-5%	>57
Cc1ccccc1-n1c(-c2ccncc2)n[nH]c1=S	6%	>57
COC(=O)c1cc(=O)n(Cc2ccco2)c(=Nc2ccc(F)c(Cl)c2)s1	?	>57
CCC(C)(C)n1nnnc1C(c1ccccc1F)N1CCC(C(N)=O)CC1 (centres undefined)	6%	>57
COC(=O)Nc1ccc(OC)c(OC)c1	-10%	>57
O=C(N1CCOCC1)N1CCC(NC(=O)C23CC4CC(CC(C4)C2)C3)CC1	-9%	>57
Cc1ccc(S(=O)(=O)N[C@H]2COC(=O)C/C=C\[C@@H](C)[C@H](NS(=O)(=O)c3ccc(C)cc3)COC(=O)C/C=C\[C@H]2C)cc1	-6%[8 µM]	·
O=C(Nn1cnnc1)c1ccncc1	3%	>57
O=C(Nc1ccc2c(c1)CCC2)c1cnccn1	-10%	>57
COc1ccccc1Oc1c(C)oc2c(CN3CCN(CCO)CC3)c(O)ccc2c1=O	·	>57
Cc1cc(C(=O)NCc2ccccc2Br)no1	1%	>57
COc1ccccc1NC(=O)CSc1nnnn1Cc1ccccc1	-6%	>57
O=C(c1ccccc1)N1CCN(CC(O)COCC2CC=CCC2)CC1 (centres undefined)	2%	>57
CCN1C(=S)SC(=O)C1=C1C=C(C)N(CCOC)C(C)=C1	-6%	>57
CCOC(=O)N1CCN(CC(=O)Nc2cc3c(cc2C(C)=O)OCO3)CC1	9%	>57
O=C(CSc1nnc(-c2ccco2)n1-c1ccccc1)N1CCOCC1	-12%	>57
O=C(O)Cn1nc(-c2ccccc2)c2ccccc2c1=O	10%	>57
Cc1cc(C)n(C/C=C/Cn2nc(C)cc2C)n1	1%	>57
O=C(NCCCc1ccccc1)c1ccc(Br)o1	-11%	>57
CCCCNC(=O)CS(=O)Cc1nc(-c2cccc(C)c2)oc1C (centres undefined)	-8%	>57
N#CCCN(C(=O)COC(=O)c1ccc2c(c1)NC(=O)CS2)c1ccc2c(c1)OCCO2	0%	>57
COc1ccc(Cl)cc1C(=O)NCC(C)C	0%	·
Cc1noc(C)c1-c1cncnc1NCc1cccnc1	?	>57
CCC1Oc2ccccc2N(CC(=O)Nc2ccc(OC)cc2OC)C1=O (centres undefined)	?	>57
O=C(c1cccc(F)c1)N1CCC2(CC1)CCN(c1ncccn1)CC2	-4%	>57

The results go on.
SMILES	Anthrax LT inh	Prx2 Sm inh
CC(C)CNC(=O)c1cccc(C(=O)NCC(C)C)c1	-1%	>57
Cc1ccc2[nH]c(-c3ccccc3)c(CN3CCN(C)CC3)c(=O)c2c1	-19%	·
COc1ccc(C2SCC(=O)N2c2c(C)n(C)n(-c3ccccc3)c2=O)c(OC)c1 (centres undefined)	3%	>57
C=CCn1c(SCCC#N)nnc1-c1ccncc1	-3%	>57
c1ccc(N2CCN(c3cnccn3)CC2)nc1	4%	>57
Nc1cc(=O)[nH]c(SCC(=O)NCC2CCCO2)n1 (centres undefined)	7%	>57
CCOC(=O)C(Cc1cc(C(C)=O)ccc1OC(C)C)C(=O)OCC	1%	>57
CC1Cc2ccccc2N1C(=O)CCS(=O)(=O)c1cccs1 (centres undefined)	0%	>57
COc1ccc(OC)c(C2C(C(=O)Nc3ccccc3OC)=C(C)Nc3nc(CCCO)nn32)c1 (centres undefined)	-7%	>57
CC(C)(C)NC[C@H](O)COc1nsnc1N1CCOCC1	0%	>57&>57&>57
O=c1[nH]n(CC2COC3(CCCCC3)O2)c(=O)c2ccccc12 (centres undefined)	0%	>57
O=C(O)C1CCCN(S(=O)(=O)c2ccc(Cl)s2)C1 (centres undefined)	-3%	>57
COc1ccc(C2C3=C(N=C4SCC(=O)N42)c2ccccc2CC3)cc1OC (centres undefined)	·	>57
COC(=O)C1C(=O)N2CCCSC2=C(C#N)C1c1cccs1 (centres undefined)	2%	>57

Reformatted with values under each structure: part of the list above
Values run as follows: Anthrax LT inh	Prx2 Sm inh
COc1ccc(OC)c(C2C(C(=O)Nc3ccccc3OC)=C(C)Nc3nc(CCCO)nn32)c1 (centres undefined)
 : -7%	>57
Nc1cc(=O)[nH]c(SCC(=O)NCC2CCCO2)n1 (centres undefined)
 : 7%	>57

Some of the compounds tested, so the mix of outcomes need not match the whole.
